Tg IFNy HTS: T. gondii growth inhibition under IFN-gamma | Toxoplasma gondii growth in IFN-gamma-treated host cells; hits give low values; reference of the scale not given here | 3.8% of 69,000 active | activity change, negative = inhibition, %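 (about 20 µM by stock and volumes)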;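 active = below -70%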;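 note: host cells are HeLa cells infected with Toxoplasma gondii; parasite growth read as luciferase light; one replicate is shown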
* marks the source's active call; other numbers are inactive results; i = inactive; & = joins results of further samples.

> O=S(=O)(c1ccccc1)C1(c2n[nH]c(CCc3ccccc3)n2)CC1
  Tg IFNy HTS = -5

> CCCCN(C(=O)CNC(=O)c1cccs1)C(C(=O)NC1CCCC1)c1cccnc1 (stereo not given)
  Tg IFNy HTS = -8

> CCOC(=O)C1CCC(CNC(=O)N2CCC3(CC2)Nc2cc(C)ccc2-n2cccc23)CC1 (stereo not given)
  Tg IFNy HTS = 186

> O=c1ccc2c(n1Cc1cccnc1)CCC(NCc1ccco1)C2 (stereo not given)
  Tg IFNy HTS = -3

> CNC(=O)c1nc(Nc2ccc(F)cc2)c2ccccc2n1
  Tg IFNy HTS = -8

> CC1=C(C(=O)NCCCN2CCCCC2)C2(CCN(S(C)(=O)=O)CC2)OC1=O
  Tg IFNy HTS = 16

> Cc1[nH]c2c(c1C(=O)N1CCN(C)C(C(=O)O)C1)C(=O)CCC2 (stereo not given)
  Tg IFNy HTS = 1

> O=c1cc(-c2cccnc2)nc2cc(-c3ccco3)[nH]n12
  Tg IFNy HTS = -35

> COc1ccc(C2(NC(=O)C3CC(=O)N(Cc4ccccc4)C3)CCCCC2)cc1 (stereo not given)
  Tg IFNy HTS = 350

> CCCCCCCOc1ccc(-c2ccc(C#N)cn2)cc1
  Tg IFNy HTS = -57

> CCC(CC)(NC(=O)C(C)C)C(=O)N[C@@H](CCCN=C(N)N)C(=O)NC1(C(=O)NC(c2ccc(F)cc2)c2ccc(F)cc2)CCCC1
  Tg IFNy HTS = -38

> COc1ccc(C(=O)Nc2ccc3c(c2)nc(C(F)(F)F)n3C)cn1
  Tg IFNy HTS = 20

> O=S(=O)(CCc1ccccc1)NCCc1csc(-c2cccc(F)c2)n1
  Tg IFNy HTS = -32

> COc1cc2cc(N)c(C3CCN(C(=O)C(C)n4cncn4)CC3)nc2cc1OC (stereo not given)
  Tg IFNy HTS = 134

> COc1ccc([C@@H]2Sc3ccccc3NC(=O)[C@@H]2O)cc1
  Tg IFNy HTS = 18

> COc1ccccc1N(Cc1nc(-c2ccc(C)cc2)oc1C)S(=O)(=O)c1ccc(C)cc1
  Tg IFNy HTS = 4

> CC(C)N(C)CC1COC2(COCCN(C(=O)N(C)C)C2)C1 (stereo not given)
  Tg IFNy HTS = 12

> O=C(CC1COCCN1)NCc1cc(F)ccc1C(F)(F)F (stereo not given)
  Tg IFNy HTS = 7

> Cc1cc(C)n(Cc2ccc(C(=O)N(C)C(C)c3ccccn3)cc2)n1 (stereo not given)
  Tg IFNy HTS = -41

> CCCCc1ccc(C(=O)Nc2sccc2C#N)cc1
  Tg IFNy HTS = 122

> CNC[C@H]1OCc2cn(nn2)CCCC(=O)N([C@@H](C)CO)C[C@H]1C
  Tg IFNy HTS = 12

> Cc1cccc(C(=O)N2CCC(C)(C(=O)NCc3ccc(F)cc3F)CC2)c1
  Tg IFNy HTS = 40

> COc1cccc(-n2cc(CN(C)CC3CCCC3)cn2)c1
  Tg IFNy HTS = 4

> CCn1ccnc1Cn1ccnc1-c1ccc(N(C)C)nc1
  Tg IFNy HTS = 8

> C=CCn1c(=O)c(-c2nc(-c3ccc(OC)c(F)c3)no2)c(O)c2ccccc21
  Tg IFNy HTS = 50

> COc1ccc(Oc2cccc(Cl)c2CNC(=O)CSCC(=O)O)cc1
  Tg IFNy HTS = 31

> CCOC(=O)CCC(=O)O[C@H]1[C@H](O[C@@H]2[C@@H](C)[C@H](O[C@H]3C[C@@](C)(OC)[C@@H](O)[C@H](C)O3)[C@@H](C)C(=O)O[C@H](CC)[C@@](C)(O)[C@H](O)[C@@H](C)C(=O)[C@H](C)C[C@@]2(C)O)O[C@H](C)C[C@@H]1N(C)C
  Tg IFNy HTS = -12

> Cc1cc(Cc2cccc(F)c2)cc(C2CCN(C(=O)c3n[nH]c4c3CCCCC4)CC2)n1
  Tg IFNy HTS = -111*

> COc1cccc(-c2nc(C)c(-c3ccc(SCc4ccccc4C)nn3)s2)c1
  Tg IFNy HTS = 1

> CCOc1ccc(-c2nc(Cn3nnc(C(=O)Nc4ccc(Cl)cc4)c3C)c(C)o2)cc1
  Tg IFNy HTS = 49

> CCc1nc([C@H]2CN(C)C[C@@H]2C(=O)NCc2ccccn2)c(C)[nH]1
  Tg IFNy HTS = 7

> CCOC(=O)CC1CCCCN1Cc1nnc(C2CC2)o1 (stereo not given)
  Tg IFNy HTS = 16

> CCN(Cc1nccn1C)C(=O)c1ccc(-c2cccc3ncccc23)nc1
  Tg IFNy HTS = -2

> COCCN1C(=O)CCC12CCC(NC(=O)c1cc(C)on1)CC2 (stereo not given)
  Tg IFNy HTS = -49

> Cc1nc(-c2ccc(F)cc2)sc1CCNC(=O)c1cccc(F)c1
  Tg IFNy HTS = -38

> CCOCc1cnc2n1CCN(S(=O)(=O)c1cn(C)cn1)C2C (stereo not given)
  Tg IFNy HTS = 2

> COc1ncc(CN(C)Cc2noc(C)n2)cn1
  Tg IFNy HTS = 4

> COCCC(=O)c1cc(-c2cn(-c3nccs3)c(C)n2)n2ccccc12
  Tg IFNy HTS = 133

> COC(=O)c1cccc(NC(=O)Nc2ccc(-c3nc(-c4ccc(C)cc4C)co3)cc2)c1
  Tg IFNy HTS = 18

> COc1ccc2c3c([nH]c2c1)[C@H](CO)N(C)CC31CCN(S(=O)(=O)c2ccc(C)cc2)CC1
  Tg IFNy HTS = -42

> Cc1ccc(-c2nc(C)c(CCNC(=O)C(=O)Nc3cc(F)ccc3F)s2)cc1
  Tg IFNy HTS = 47

> CCc1ccc(NC(=O)N2CCC3(CC2)Nc2cc(OC)ccc2-n2cccc23)cc1
  Tg IFNy HTS = 225

> Cc1ccc(C)c(NC(=O)c2nnn(Cc3nc(-c4cccc(Cl)c4)oc3C)c2C)c1
  Tg IFNy HTS = -5

> Cc1n[nH]c(C)c1CCC(=O)N1CC(=O)N(C2CCCCC2)CC(OCc2ccccc2)C1 (stereo not given)
  Tg IFNy HTS = 0

> CC(C)NC(=O)N(C)C[C@H]1Oc2c(NS(=O)(=O)c3cccs3)cccc2C(=O)N([C@H](C)CO)C[C@H]1C
  Tg IFNy HTS = -14

> COc1cccc(-c2cc(C(=O)NC3CC(=O)N(c4ccccc4OC)C3)[nH]n2)c1 (stereo not given)
  Tg IFNy HTS = 13

> COc1ccc(N(Cc2nc(-c3ccc(OC)c(OC)c3)oc2C)S(=O)(=O)c2ccccc2)cc1
  Tg IFNy HTS = -49

> CC(=O)N1CCC2(CC1)OC(=O)C(C)=C2C(=O)NCCCN1CCN(C2CCCCC2)CC1
  Tg IFNy HTS = 102

> C[C@]12CCc3occc3C1CC[C@@]13C[C@@H](CCC12)[C@@](O)(CO)C3 (stereo not given in full)
  Tg IFNy HTS = 3

> CCn1c(SCC(=O)c2ccccc2)nc2ccccc2c1=O
  Tg IFNy HTS = 2

New compounds follow
structure	Tg IFNy HTS
CCn1cc(C(=O)O)c(=O)c2cnc(N3CCCC3)nc21	4&12&-66
COc1ccc2[nH]c(C(=O)N(C)CCc3noc(C(C)C)n3)c(C)c2c1	0
O=C(NCC1Cc2cc(-c3cnc4ccccc4c3)cc(F)c2O1)C1=CCCC1 (stereo not given)	-45
COc1ccc(-c2nc3cnccn3c2NCCC(=O)N2CCC3(CC2)OCCO3)cc1	39
C[C@H]1CN([C@@H](C)CO)C(=O)c2cc(NC(=O)Nc3cccc4ccccc34)ccc2O[C@@H]1CN(C)S(=O)(=O)c1cccs1	23
CCn1ncc(S(=O)(=O)N2CCCC(c3nn(C)c(=O)n3CC)C2)c1C (stereo not given)	-6
Cc1nn(C)c(C)c1CN(C(=O)c1ccc(=O)n(C)c1)C(C)C	-1
CCC1CN(Cc2ccc(OCc3ccccn3)cc2)CCN1C(C)C (stereo not given)	3
CCN(CC1CCCO1)C(=O)c1cccc(-c2cn[nH]c2)c1 (stereo not given)	0
CC(O)COC[C@H]1O[C@@H]2O[C@H]3[C@H](O)[C@@H](O)[C@@H](O[C@H]4[C@H](O)[C@@H](O)[C@@H](O[C@H]5[C@H](O)[C@@H](O)[C@@H](O[C@H]6[C@H](O)[C@@H](O)[C@@H](O[C@H]7[C@H](O)[C@@H](O)[C@@H](O[C@H]8[C@H](O)[C@@H](O)[C@@H](O[C@H]1[C@H](O)[C@H]2O)O[C@@H]8COCC(C)O)O[C@@H]7COCC(C)O)O[C@@H]6COCC(C)O)O[C@@H]5COCC(C)O)O[C@@H]4COCC(C)O)O[C@@H]3COCC(C)O (stereo not given in full)	6
O=C(c1cc(Cl)c[nH]c1=O)N1CCC(c2cc(Cc3ccccc3)[nH]n2)CC1	0
Cc1oc(-c2ccsc2)nc1CN1CCCCC1c1ccc(F)cc1 (stereo not given)	0
CC(=O)N1c2ccccc2C(C)=CC1(C)C	12
NC1CC(=O)N(CCCc2ccccc2)C1 (stereo not given)	7
COc1nccnc1NCCc1cc(=O)[nH]c(C23CC4CC(CC(C4)C2)C3)n1	9
CC(C)NCC(O)c1ccc2ccccc2c1 (stereo not given)	9&17
Cc1ccc2c(c1C)-n1cccc1C1(CCN(S(=O)(=O)c3cccc(C#N)c3)CC1)N2	21
CCOc1ccc(-c2nc3c(s2)CN(S(=O)(=O)c2ccc(CC)cc2)CC3)cc1	7
COc1ccc(CCNc2c(-c3cn(C)nc3C)nc3cnccn23)cc1OC	-35
CC(C)C(=O)N1CCC2(CC2C(=O)N(C)Cc2ccccn2)C1 (stereo not given)	-44

Fetched by structure from above (six):
structure	Tg IFNy HTS
COc1nccnc1NCCc1cc(=O)[nH]c(C23CC4CC(CC(C4)C2)C3)n1	9
CC(C)C(=O)N1CCC2(CC2C(=O)N(C)Cc2ccccn2)C1 (stereo not given)	-44
O=C(c1cc(Cl)c[nH]c1=O)N1CCC(c2cc(Cc3ccccc3)[nH]n2)CC1	0
CC(C)NCC(O)c1ccc2ccccc2c1 (stereo not given)	9&17
COc1ccc(CCNc2c(-c3cn(C)nc3C)nc3cnccn23)cc1OC	-35
NC1CC(=O)N(CCCc2ccccc2)C1 (stereo not given)	7

The results go on:
structure	Tg IFNy HTS
CCCCC/C=C\C/C=C\CCCCCCCC(=O)NCCCC(=O)O	12
NCCc1cccc(-c2cc(NCCO)nc3[nH]ccc23)c1	-10
O=C(CC(c1ccccc1)c1ccco1)N1CC(n2cccn2)C1 (stereo not given)	3
C=CCOCc1nnn2c1CN(Cc1c(C)noc1C)CCC2	-3
O=C(Nc1ccccc1-c1ccccc1)c1ccc2c(c1)[nH]c(=O)n2C1CCCC1	-92*
O=C(NC1CC1)c1nc(Nc2ccc(F)cc2)c2ccccc2n1	-10
COc1cccc(CC(=O)N2CCC3(CC2)Nc2ccc(Cl)cc2-n2cccc23)c1	29
CN1C2CCN(Cc3nccs3)CC2C[C@H]1Cn1cncn1 (stereo not given in full)	4
Cc1nc2ccc(C(=O)Nc3cnn(CC(=O)NCCc4ccccc4F)c3)cc2[nH]1	87
O=C(Nc1ccc2c(c1)ncn2-c1ccccc1)c1cccs1	-95*

Entries from the list above containing a thiophene ring, fused or not (six):
structure	Tg IFNy HTS
CCCCN(C(=O)CNC(=O)c1cccs1)C(C(=O)NC1CCCC1)c1cccnc1 (stereo not given)	-8
CCCCc1ccc(C(=O)Nc2sccc2C#N)cc1	122
CC(C)NC(=O)N(C)C[C@H]1Oc2c(NS(=O)(=O)c3cccs3)cccc2C(=O)N([C@H](C)CO)C[C@H]1C	-14
C[C@H]1CN([C@@H](C)CO)C(=O)c2cc(NC(=O)Nc3cccc4ccccc34)ccc2O[C@@H]1CN(C)S(=O)(=O)c1cccs1	23
Cc1oc(-c2ccsc2)nc1CN1CCCCC1c1ccc(F)cc1 (stereo not given)	0
O=C(Nc1ccc2c(c1)ncn2-c1ccccc1)c1cccs1	-95*

The list goes on.
structure	Tg IFNy HTS
CCCCNC(=O)CCC1N=C2c3ccccc3N=C(SCc3cccc(F)c3)N2C1=O (stereo not given)	8
Cc1ccccc1CNC(=O)N1C[C@H]2[C@H](C(=O)N(C)C)CCS(=O)(=O)[C@H]2C1	3
Clc1ccc(N2N=C(/C=C/c3cccs3)CC2c2cccs2)cc1 (stereo not given)	-28
COC(=O)c1sccc1NN=C1c2cc(OC)ccc2-c2ccc(OC)cc21	0
C=CCc1cccc(/C=N/NC(=O)CN2CCN(Cc3ccccc3)CC2)c1O	-37
COc1cccc(CN2C[C@@H]3N[C@H](C2)C3c2ccc(-c3ccccc3C)cc2)c1 (stereo not given in full)	-47&-29
C=C[C@@](C)(O)CCC1C(=C)CCC2[C@@](C)(CO)CCC[C@]12C (stereo not given in full)	1
COc1ccc2c3c([nH]c2c1)[C@@H](CO)N(C)CC31CN(C(=O)C2CC2)C1	31
COc1ccc(Cl)cc1S(=O)(=O)N1CCC2(CC1)Nc1ccccc1-n1cccc12	4
Cc1nc(-c2ccc(F)cc2)sc1CCNS(C)(=O)=O	83
O=C(c1cccnc1)N1CCC2(COCc3cnc(N4CCOCC4)nc32)C1 (stereo not given)	8
CC1CCN(S(=O)(=O)c2ccc3c(c2)CCC(=O)N3CC(=O)Nc2ccccn2)CC1	10
CS(=O)(=O)N1C[C@H]2COC[C@@]2(C(=O)NCc2ccccn2)C1	-9
CCc1nc(SCC(=O)N(C)Cc2n[nH]c3c2CCC3)n[nH]1	10
O=S(=O)(c1ccccc1)N1CC2CN(Cc3ccccc3)CC2C1 (stereo not given)	-2
COc1cccc(OCCc2nnc(N)s2)c1	19
Cc1nn(-c2ccccc2)nc1C(=O)Sc1ccc(Cl)cc1	-59
COC(=O)C1C(c2ccccc2)NC(c2ccccc2)C(C(=O)OC)S1(=O)=O (stereo not given)	-1
COc1ccc(C(=O)N2C[C@@H]3[C@H](c4ccccc42)[C@H](CO)N3C(=O)NC(C)C)cc1	-2
Cc1nc2sccn2c1C(=O)NCC1(Cn2cccn2)CC1	1
COc1ccccc1N1CCN(C(=O)c2c(C)noc2C)CC1	-13
C=CCC1(OC)CCN(C(=O)c2cc(CN3CCC(O)CC3)on2)CC1	5
Cc1cc2c(=O)[nH]c(Cc3ccccc3)nc2s1	-34
O=C(c1ccncc1)N1CCc2c([nH]c3ccccc23)C1c1ccc(Cl)cc1 (stereo not given)	-88*
OCCn1c(-c2ccc(-c3ccn[nH]3)cc2)nc2ccccc21	92
Cc1cc(C)c2c(CC(=O)N3CCC(O)(Cn4ccnc4C)CC3)coc2c1	-2
COc1ccc2c3c([nH]c2c1)[C@H](CO)N(CC1CC1)CC31CCN(C(=O)Nc2cccc(F)c2)CC1	-18
COc1cccc(-n2cc(-c3ccc(F)cc3)[nH]c2=S)c1	i
CC1CCCCN1S(=O)(=O)c1ccc2c(c1)CCC(=O)N2CC(=O)NC1CCCCC1 (stereo not given)	0
Cn1cc(NC(=O)OC(C)(C)C)cc1C(=O)O	22

These rows are one share of the data; count on the stated rates, not on these rows.
